# UCH37 DUB inh = human UCH37 deubiquitinating enzyme inhibition; Q9Y5K5; purified proteasome/UCH37, Ub-AMC cleavage fluorescence; inhibition, % (concentration not given with the values); 330,000 compounds, 0.33% hits; AID 588478;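 active = mean of two replicates above 20%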;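 also: 0% = compound-free wells with enzyme and 100% = wells lacking proteasome; stock transfer was 100 nL into about 20 µL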
#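 assay system = human UCH37 enzyme supplied as purified proteasome complex | amount = proteasome at 0.15 nM in the dispensed enzyme solution | schedule = 30 min compound-proteasome preincubation then 25 min substrate reaction, room temperature | measured by = fluorescence, ex 355 nm, em 460 nm | benchmarks = no-proteasome wells (full inhibition) and compound-free wells (no inhibition)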
# ALR H2O2 inh = blocks human ALR sulfhydryl oxidase activity; purified ALR, DTT oxidation, H2O2 HRP-luminol luminescence; inhibition, % (no concentration beside the values); P55789; 290,000 compounds, 3.8% hits;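 active = mean and each replicate at 75% or more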;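 also: stock transfer was 7.5 nL into about 7.5 µL; 0% = neutral wells and 100% = wells with inactivated enzyme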
# E coli growth = inhibitors of Escherichia coli growth. OD600, 23 h; hits give low values. OD600 absorbance (concentration not given with the values). 330,000 compounds, 0.21% hits. AID 1053175;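 active = OD600 absorbance below the run mean of sample wells minus 3.6 SD, in any replicate, cut at about 0.56 in these data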;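 also: stock transfer was 300 nL into about 60 µL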
# HNF4A DNA FP = change in binding of human HNF4 alpha to DNA. P41235. HNF4a-FITC DNA binding, fluorescence polarization, 1 h. activity change, % at 10 µM. 360,000 compounds, 0.3% hits; in the data active = activity change above about 30%, passing the limit was not always enough;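 also: controls were the assay level and a saturating level of protein; the project sought stronger binding though the title names inhibitors; some compounds called inactive have numbers as strong as hits; positive values seem to mean higher polarization but the record does not say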
# Target sequence (P41235 whole entry, looked up): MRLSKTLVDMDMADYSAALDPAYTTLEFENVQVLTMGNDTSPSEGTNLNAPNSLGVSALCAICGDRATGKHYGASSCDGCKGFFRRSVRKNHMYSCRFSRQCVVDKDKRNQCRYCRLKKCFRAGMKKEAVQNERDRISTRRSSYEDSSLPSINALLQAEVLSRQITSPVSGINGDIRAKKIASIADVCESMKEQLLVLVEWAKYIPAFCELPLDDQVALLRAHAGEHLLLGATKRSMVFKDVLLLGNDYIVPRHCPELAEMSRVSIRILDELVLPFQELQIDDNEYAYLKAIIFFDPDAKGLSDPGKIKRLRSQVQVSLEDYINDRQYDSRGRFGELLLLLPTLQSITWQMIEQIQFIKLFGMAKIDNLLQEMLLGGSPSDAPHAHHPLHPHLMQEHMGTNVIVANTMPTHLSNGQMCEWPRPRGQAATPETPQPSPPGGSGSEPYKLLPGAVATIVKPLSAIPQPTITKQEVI
# Beta2AR agonist = agonists of human beta-2 adrenergic receptor inducing internalization; P07550; Am2.2-beta2AR cells, FAP receptor internalization, flow cytometry; reference of the scale not given here; response, % (concentration not given with the values); 340,000 compounds, 0.43% hits; AID 504454;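 active = response above a set limit, near 3 SD of response in nonfluorescent compounds, cut at about 42% in these data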;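 also: stock transfer was 100 nL into about 11 µL; a reference agonist was the positive control; negative values mostly stem from fluorescent compounds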
# Target sequence (P07550 whole entry, looked up): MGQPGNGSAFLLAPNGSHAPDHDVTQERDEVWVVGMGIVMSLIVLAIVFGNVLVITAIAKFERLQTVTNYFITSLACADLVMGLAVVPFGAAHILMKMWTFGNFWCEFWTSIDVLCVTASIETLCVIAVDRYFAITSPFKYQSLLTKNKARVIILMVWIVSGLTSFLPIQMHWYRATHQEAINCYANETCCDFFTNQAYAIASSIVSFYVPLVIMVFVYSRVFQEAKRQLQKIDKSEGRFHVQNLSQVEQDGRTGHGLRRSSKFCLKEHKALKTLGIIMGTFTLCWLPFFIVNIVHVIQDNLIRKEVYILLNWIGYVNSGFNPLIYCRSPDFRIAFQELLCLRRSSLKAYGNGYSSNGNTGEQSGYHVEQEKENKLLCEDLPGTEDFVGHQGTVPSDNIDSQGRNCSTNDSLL
# FGF22 binding = shifts melting point of recombinant human FGF22 | 340,000 compounds, 1.5% hits | calls only at 9.99 µM | AID 651658 | recombinant FGF22 thermal shift, SYPRO orange fluorescence; percent of sucrose octasulfate shift, DMSO zero | Q9HCT0;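 active = melting point raised past a set limit in the mean and every replicate; three in four hits are not shown here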
# Target sequence (Q9HCT0 whole entry, looked up): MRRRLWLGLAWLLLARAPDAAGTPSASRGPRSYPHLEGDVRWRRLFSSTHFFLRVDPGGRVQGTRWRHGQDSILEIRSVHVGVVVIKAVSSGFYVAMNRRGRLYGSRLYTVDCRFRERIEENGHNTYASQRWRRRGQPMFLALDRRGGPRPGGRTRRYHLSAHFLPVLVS
# rRNA inh HTS = inhibits bacterial ribosomal RNA function over humanized ribosomes; 350,000 compounds, 1.6% hits; GFP signal change (wild-type ribosome), % (test concentration not listed); E. coli WT GFP vs humanized-ribosome RFP mutants, fluorescence, 24 h; hits give low values; DMSO median 0, no signal -100; AID 720706;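 active = significant combined selectivity score with lowered wild-type GFP, culture density cut under 30%, mutant RFP and density less affected; inactive = any of these conditions unmet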; also: one replicate is shown; some compounds called inactive have numbers as strong as hits
# rRNA inh HTS OD600 = recorded beside rRNA inh HTS, whose call it bears; OD600 change, %; measured here: OD600 growth;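 optical density of the mix in the first replicate; 0 = DMSO median and -100 = no signal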
# rRNA inh HTS RFP = recorded beside rRNA inh HTS, whose call it bears; RFP signal change, %; measured here: RFP humanized mutant strains;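 first replicate; 0 = DMSO median and -100 = no signal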
# * hit, by the source's call; i = inactive; nt = not tested or not shown; & = joins results of further samples.
# Preview, 4 compounds:
UCH37 DUB inh,ALR H2O2 inh,E coli growth,HNF4A DNA FP,Beta2AR agonist,FGF22 binding,rRNA inh HTS,rRNA inh HTS OD600,rRNA inh HTS RFP,smiles
nt,nt,nt,0.6,nt,i,7,-26,-2.9,CCOC(=O)C1=CCN(S(=O)(=O)c2ccccc2Br)C1c1cccc(C)c1 (stereo unspecified)
2.5,-6,0.67,1.2,-4,i,4,5,-1.6,O=C(CC12CC3CC(CC(C3)C1)C2)Nc1nncs1
2.8,-12,0.69,33,-138,i,66,3,2.9,C=CCN1C(=O)[C@@H]2Cc3c([nH]c4ccccc34)C(c3cc(OC)c(OC)c(OC)c3)N2C1=S (stereo partly specified)
nt,nt,nt,7.8,nt,i,-6,-4,5.5,Cc1ccc(Cc2c(-c3cccc(Br)c3)nc3c(C)cc(Br)cn23)cc1

# The whole of this part, from the first entry:
UCH37 DUB inh,ALR H2O2 inh,E coli growth,HNF4A DNA FP,Beta2AR agonist,FGF22 binding,rRNA inh HTS,rRNA inh HTS OD600,rRNA inh HTS RFP,smiles
nt,nt,nt,0.6,nt,i,7,-26,-2.9,CCOC(=O)C1=CCN(S(=O)(=O)c2ccccc2Br)C1c1cccc(C)c1 (stereo unspecified)
2.5,-6,0.67,1.2,-4,i,4,5,-1.6,O=C(CC12CC3CC(CC(C3)C1)C2)Nc1nncs1
2.8,-12,0.69,33,-138,i,66,3,2.9,C=CCN1C(=O)[C@@H]2Cc3c([nH]c4ccccc34)C(c3cc(OC)c(OC)c(OC)c3)N2C1=S (stereo partly specified)
nt,nt,nt,7.8,nt,i,-6,-4,5.5,Cc1ccc(Cc2c(-c3cccc(Br)c3)nc3c(C)cc(Br)cn23)cc1
4.4,2,0.68,-1.1,-10,i,-4,-5,1.5,CCOc1ccc(-n2c(-c3ccccc3)c[nH]c2=S)cc1
-5.3,2,0.68,-8.0,4,i,2,6,1.0,O=C(O)CCn1c(-c2ccccn2)nc2ccccc21
4.3,1,nt,1.0,-2,i,7,2,0.8,C=CC[C@H](CC(=O)N[C@H](CO)Cc1ccccc1)C(=O)N[C@H](COC(=O)[C@H](CC=C)CC(=O)OC(C)(C)C)Cc1c[nH]c2ccccc12
6.0,4,0.75,2.6,-17,i,9,3,5.0,CC(C)C(NS(=O)(=O)c1ccc2c(c1)oc(=O)n2C)C(=O)N1CCN(c2ccccc2F)CC1 (stereo unspecified)
-19,3,0.72,1.6,-8,nt,nt,nt,nt,O=C1Nc2ccccc2C(=O)C1(Cl)Cc1ccccc1 (stereo unspecified)
-0.2,-10,0.69,4.7,6,i,10,6,-1.6,Cc1nc2nc(C)c(CCC(=O)NC3CCCCC3)c(C)n2n1
-2.2,-1,0.75,0.1,3,nt,nt,nt,nt,Cn1ncc(Cl)c1C(=O)N1CCCc2ccccc21
2.1,97*,0.68,1.9,-10,nt,nt,nt,nt,CCCCc1c(C)nc2ccc(C(=O)OCC)cc2c1Cl
8.6,-4,0.67,3.2,-1,nt,nt,nt,nt,O=c1[nH]n2cc(-n3cc([N+](=O)[O-])cn3)cnc2c1Br
-2.8,-11,0.74,-0.6,2,i,13,-1,-2.9,CCc1nc(-c2ccc(OC)c(OC)c2)cc2cc(OC)c(OC)cc12
-2.0,-4,0.75,9.7,-7,i,5,4,-1.2,Cc1nonc1NC(=O)CSc1nc2cc(Cl)ccc2c2c1CCCC2

# Next section, overlapping the part above by three compounds.
UCH37 DUB inh,ALR H2O2 inh,E coli growth,HNF4A DNA FP,Beta2AR agonist,FGF22 binding,rRNA inh HTS,rRNA inh HTS OD600,rRNA inh HTS RFP,smiles
8.6,-4,0.67,3.2,-1,nt,nt,nt,nt,O=c1[nH]n2cc(-n3cc([N+](=O)[O-])cn3)cnc2c1Br
-2.8,-11,0.74,-0.6,2,i,13,-1,-2.9,CCc1nc(-c2ccc(OC)c(OC)c2)cc2cc(OC)c(OC)cc12
-2.0,-4,0.75,9.7,-7,i,5,4,-1.2,Cc1nonc1NC(=O)CSc1nc2cc(Cl)ccc2c2c1CCCC2
5.6,40,0.7,3.9,27,i,nt,nt,nt,Cc1cc(Cl)n2nc(C)c(-c3ccc(Cl)cc3)c2n1
18,13,0.64,-0.9,8,i,-16*,1.6*,1.2*,O=C(Nc1ccc(C(=O)O)cc1)/C(=C\C=C\c1ccccc1)NC(=O)c1ccccc1Br
-1.2,0,0.71,-2.2,-4,i,1,5,-1.9,CC(OC(=O)CCN=C1NS(=O)(=O)c2ccccc21)C(=O)NCc1ccccc1 (stereo unspecified)
-0.5,nt,0.66,12,-2,i,13,-38,7.7,Cc1nc2ccc(NS(=O)(=O)c3ccc(Br)cc3)cc2s1
0.2,-4,0.71,-1.4,2,nt,1,8,-4.7,COc1ccc(C(=O)Nc2ccc(N3CCN(Cc4ccccc4)CC3)cc2)cc1
4.7,nt,0.68,0.7,-3,i,-23,-22,-8.8,COc1cccc(CC2(CO)CCN(S(=O)(=O)c3ccc(OC)cc3OC)CC2)c1
3.3,-6,0.7,-0.5,-5,nt,nt,nt,nt,Cc1cc(C)cc(-n2nnc(C(=O)NCc3ccc(Cl)cc3)c2N)c1
2.5,-6,0.7,-1.3,6,i,18,14,0.5,Cn1c(SCC(=O)NNC(=O)c2ccccc2)nnc1C(F)(F)F
nt,nt,nt,4.6,nt,i,-61,-69,-14,COc1ccc(CN2CCC2(C)C(=O)NCc2ccc3c(c2)OCO3)c2ccccc12 (stereo unspecified)
5.6,nt,0.72,2.7,-1,i,4,3,2.8,CC(=O)NC1=NN(C(C)=O)C2(S1)C(=O)N(C(C)=O)c1ccc(C)cc12 (stereo unspecified)
-0.5,2,0.67,2.0,4,i,7,7,0.8,Cc1cccc(C)c1NC(=O)C1CSC2(C)CCC(=O)N12 (stereo unspecified)
2.3,-8,0.67,0.7,-3,nt,nt,nt,nt,COc1nc(N(C)C)nc(-n2nnc(C(C)=O)c2C)n1
5.2,nt,0.72,-1.9,-3,i,0&2,-1&7,-0.2&-0.5,COc1ccc(NC(=O)N(C)C[C@H]2Oc3ccc(NC(=O)Nc4c(C)noc4C)cc3C(=O)N([C@H](C)CO)C[C@@H]2C)cc1
0.4,3,0.64,3.4,1,i,28,19,1.3,Cc1ccccc1OC1=NS(=O)(=O)c2ccccc21
2.4,-2,0.68,1.9,3,i,0,4,5.9,CCc1nc(SCC(=O)Nc2cccc(C(F)(F)F)c2)c2c(=O)n(C)c(=O)n(C)c2n1
-0.3,-10,0.72,-4.7,28,i,nt,nt,nt,COCCn1c(SCC(=O)Nc2ccc(C)cc2C)nc2c(oc3ccccc32)c1=O
0.7,nt,0.67,-2.5,-3,nt,4,13,1.1,O=Cc1c(-c2ccccc2)cc2oc3ccccc3cc1-2
4.5,2,0.74,-0.9,-12,i,-5,1,-3.0,COc1cc2c(C(=O)NCc3ccccn3)cn(CC(C)C)c(=O)c2cc1OC
1.5,-16,0.68,2.5,-19,i,4,3,0.1,COc1ccc(NC(=O)CSc2nc(=O)n(CCN(C)C)c3c2CCCC3)cc1
3.4,-4,0.69,-0.2,-4,nt,nt,nt,nt,N#Cc1cn(CC(=O)NCCc2c[nH]c3ccccc23)c2ccccc12
nt,-5,nt,-2.5,-10,nt,nt,nt,nt,O=C(O/N=C/C1=C(Cl)c2ccccc2CC1)c1ccc(F)cc1
nt,-2,nt,3.0,-4,nt,nt,nt,nt,Clc1ccccc1-c1nc(N/N=C/c2cccnc2)c2ccccc2n1
4.7,4,0.68,-2.4,3,i,1,-2,-0.4,Cc1cccnc1NC(=O)CN1C(=O)NC(C)(c2ccc3ccccc3c2)C1=O (stereo unspecified)
2.6,-3,0.63,-3.1,35,nt,nt,nt,nt,COC(=O)COc1ccc(S(=O)(=O)NC2CCCCCC2)cc1
-1.8,3,0.68,-3.0,-19,i,-4,-2,-1.2,COc1ccccc1NS(=O)(=O)c1cc(C(=O)N2CCCC2)ccc1C
3.6,-7,0.7,0.0,8,i,5,9,-1.9,COc1ccc(C)cc1NC(=O)CCS(=O)(=O)c1cc2c(cc1Cl)NC(=O)CO2
3.0,2,0.68,-0.8,-8,i,-5,-5,-5.5,Fc1ccc(CSc2nnc(-c3ccccn3)o2)cc1
4.3,0,0.69,-4.9,1,nt,nt,nt,nt,COc1ccc(CNC(=O)Nc2ccc(OC)cc2)cc1
3.3,-5,0.73,1.0,2,nt,nt,nt,nt,COc1ccc(Cc2nnc(NC(=O)Cn3cnc4c3c(=O)n(C)c(=O)n4C)s2)cc1OC
-0.1,nt,0.67,2.9,-4,i,4,4,2.2,O=C(Cc1cccs1)NNC(=S)NCc1ccco1
-0.2,-1,0.7,1.8,-3,i,18,23,-0.3,Cc1cc(N2C(=O)NC(=O)CC2C)c(C)cc1C(C)C (stereo unspecified)
2.6,3,0.69,0.2,10,nt,nt,nt,nt,NNC(=O)Cn1c(SCc2ccccc2)nc2ccccc21
4.2,32,0.69,4.1,3,i,5,9,3.0,COc1ccccc1C(=O)N1CCN(Cc2c[nH]c3ccccc23)CC1
5.2,-4,0.68,-3.2,-5,i,1,4,-0.6,COc1ccc(C2=NS(=O)(=O)N(C)C(C(=O)Nc3ccc(C)cc3)=C2)cc1
1.4,nt,0.72,-2.1,-3,nt,nt,nt,nt,O=C(c1ccco1)N1CCN(C/C=C/c2ccccc2)CC1
-1.8,1,0.69,1.6,51*,nt,nt,nt,nt,COC(=O)C1=C(C)NC(=S)NC1c1ccc(-c2cccc(Cl)c2)o1 (stereo unspecified)
i,-6,0.66,1.5,-2,nt,11,-3,1.7,O=C1c2cnc3ncnn3c2CC2c3ccccc3CCN12 (stereo unspecified)
0.7,-4,0.7,1.3,1,i,-7,-4,1.4,CCN(CC)C(=S)Nc1ccc(OC(F)F)cc1
3.9,nt,0.71,-1.6,1,i,7,6,6.1,O=C(CN(Cc1ccco1)Cc1ccco1)Nc1cc(S(=O)(=O)N2CCCCC2)ccc1Cl
-78,-3,0.75,2.8,-4,i,12,5,0.1,CC1(C)Cc2c(sc(NC(=O)COc3ccc(Cl)cc3Cl)c2C(N)=O)C(C)(C)N1
0.0,-4,0.69,1.1,-3,i,5,13,1.7,COc1ccc(C(=O)C2CCN(C(=S)NCCc3ccccc3)CC2)cc1
-40,-5,0.6,-0.4,42,i,-42,-35,-8.1,COc1ccc2[nH]c3c(N4CCc5ccccc5C4)ncnc3c2c1
7.5,-1,0.79,-1.0,4,nt,nt,nt,nt,COc1ccccc1NC1=NC2(CCCC2)N=C(N)N1
6.5,5,0.66,-0.8,3,i,-19*,-14*,7.3*,Cc1cc(C)c(C#N)c(SCc2[nH]nc3c2C(c2ccccc2)C(C#N)=C(N)O3)n1 (stereo unspecified)
-1.4,-1,0.67,2.8,2,i,-7,-6,-1.2,Nc1cc(=O)[nH]c(SCC(=O)Nc2ccccc2Sc2ccccc2)n1
2.1,-6,0.72,0.0,0,i,13,5,1.6,CC(C)C(NC(=O)CNC(=O)OC(C)(C)C)C(=O)NCc1ccc(Cl)cc1 (stereo unspecified)
2.8,-5,0.64,-1.7,-2,i,15,22,7.5,CCOC(=O)CSC1=NN2CCS(=O)(=O)N=C2S1
1.2,-2,0.66,2.5,-1,nt,nt,nt,nt,CCOc1ccc(Cl)cc1CNCCNCC(C)O (stereo unspecified)
4.7,-5,0.69,-0.4,-19,i,4,12,-0.7,Cc1ccc(Cl)cc1NC(=O)CCNC(=O)N1CC(=O)Nc2ccccc21

# These rows are one share of the data; count on the stated rates, not on these rows.
